# NPYLR7 ag – activates Aedes aegypti NPYLR7 receptor; HEK293T NPYLR7/Galpha15, GCaMP6s calcium fluorescence; actives 0.15% (n = 270,000); activation, % at 10 µM; in the data active = activation above about 40%;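 also: 0% = vehicle and 100% = reference agonist at the receptor; some compounds past the cut are filed as inactive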
# NPYLR7 ag max-min – also measured in NPYLR7 ag; calls as there; activation, %; measured here: Max-Min RFU normalised activation; some inactives read as strong as hits;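 span of the calcium signal over five minutes; 0% = vehicle and 100% = native peptide agonist; compound fluorescence can raise it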
# The depositor's hits bear a star; & = joins results of further samples.
SMILES,NPYLR7 ag,NPYLR7 ag max-min
COCCc1noc(CN2CCC(c3ccccc3C(=O)O)C2)n1 (stereo not drawn),3,4
CC1CCN(Cc2nnnn2CCCC(=O)NC2CCc3ccccc32)CC1 (stereo not drawn),5&6,2&-1
COCCCNC(=O)c1nn(-c2ccc(Cl)cc2)c(=O)n(Cc2cccc(OC)c2)c1=O,16,18
Cc1nn(Cc2cccc(C(=O)N[C@H](C)C(C)(C)C)c2)c(C)c1Br,6,-2
O=C(NC1CCCCC1)c1nn2c(c1Br)NC(c1cccs1)CC2C(F)(F)F (stereo not drawn),6,-1
COCCCN(CC(=O)Nc1cc(-c2ccccc2)nn1-c1ccc(F)cc1)C(=O)Nc1ccccc1OC,-2,10
COc1ccc(-n2c(CCC(=O)NCCOc3ccccc3)ccc2-c2ccc(Cl)cc2)cc1,-4,1
CCOc1ccccc1/C=C(\C#N)c1nc(-c2ccc(C)cc2)c(NC(C)=O)s1,3,7
S=c1[nH]nc(SCc2ccccc2)s1,3,-3
CC(=O)Nc1ccc(F)c(NC(=O)c2cc(C)c(C)s2)c1,0,-2
CSC(C)C(=O)N1CCC(Nc2ccccc2)CC1 (stereo not drawn),12,-15
COc1ccc(Cn2ccc3c(nnc4c(-c5ccccc5)cnn43)c2=O)cc1,-2,-1
CCOC(=O)c1c(CSc2ccccc2)n(C2CCCCC2)c2cc(Br)c(O)cc12,8,13
O=S1(=O)CCC(=NNS(=O)(=O)c2ccc(Br)cc2)c2ccccc21,2,64
FC(F)(F)c1cccc(CNc2nc(CN3CCOCC3)nc3sc4c(c23)CCC4)c1,0,-8
COc1cc(OC)c2c(=O)c(O)c(-c3ccc(OC)c(OC)c3)oc2c1,-10,-13
c1ccc(C(CC2CN(Cc3nccs3)CCO2)c2ccccc2)cc1 (stereo not drawn),4,2
Cc1cc(NC(=O)COc2ccc3c(c2)CCCC3=O)no1,0,-1
CCN(CC)c1ncccc1CNC(=O)C(C)n1cncn1 (stereo not drawn),2,0
CC(NC(=O)Cc1ccccc1F)c1ccccn1 (stereo not drawn),5,2
O=C(CN1CCN(C(=O)c2ccccc2)CC1)Nc1ccc(N2CCCCCC2)cc1,-1,-1
Cc1cc(=O)[nH]c(SCCOc2ccccc2OCc2ccccc2)n1,17,5
COc1ccc(/C=C/C(=O)N2CCCC(c3nc(-c4cccnc4)ncc3C)C2)cc1 (stereo not drawn),2,-3
CC(=O)c1cccc(CN2CCCC(CNC(=O)c3cccs3)C2)c1 (stereo not drawn),0&9,-2&4
Cc1cccnc1CN(C)Cc1nccn1C,0,11
O=C(NCCc1nnc2ccc(SCC(=O)N3CCCCC3)nn12)c1ccccc1,-3,-10
CCCc1nnc2sc(-c3c(C)nc4ccccn34)nn12,-2,-5
N#CCCN(CCC#N)C(=O)CSc1nnc(-c2ccco2)n1CCC(N)=O,0,-1
O=C(NC(c1ccco1)C(F)(F)F)c1nc(N2CCCC2)nc2c1CCCC2 (stereo not drawn),2,1
CCCCNC(=O)NS(=O)(=O)c1ccc(OC(F)(F)F)cc1,-2,-3
COc1ccc(CCN(C)S(=O)(=O)c2ccc(OC)c(N3CCN(C(=O)c4cccc(C#N)c4)CC3)c2)cc1OC,25,22
CCOC(=O)C1(Cc2ccc(Cl)cc2)CCN(C(=O)NCc2ccccc2)CC1,16&3,3&3
CC(=O)c1c(C)[nH]c(C(=O)OCc2nc(-c3ccc(C)cc3)no2)c1C,3,-1
CN(C)c1nc(N)nc(COc2ccccc2C#N)n1,-4,-5
COc1ccc(C(=O)NNc2cc(=O)n(C)c(=O)n2C)cc1OC,9,7
O=C(Nc1ccc2nc(-c3ccsc3)nn2c1)c1cccnc1,9,-5

# 4 of these compounds, reformatted:
> CCCCNC(=O)NS(=O)(=O)c1ccc(OC(F)(F)F)cc1
- NPYLR7 ag: -2
- NPYLR7 ag max-min: -3
> CCOC(=O)C1(Cc2ccc(Cl)cc2)CCN(C(=O)NCc2ccccc2)CC1
- NPYLR7 ag: 16&3
- NPYLR7 ag max-min: 3&3
> Cc1cccnc1CN(C)Cc1nccn1C
- NPYLR7 ag: 0
- NPYLR7 ag max-min: 11
> CN(C)c1nc(N)nc(COc2ccccc2C#N)n1
- NPYLR7 ag: -4
- NPYLR7 ag max-min: -5

# (cont.)
SMILES,NPYLR7 ag,NPYLR7 ag max-min
CCn1cc(NC(=O)c2cccc(CN3C[C@@H](C)O[C@@H](C)C3)c2)nn1,-2,0
COc1cc(OC)cc(C(=O)N[C@H](C(=O)NCc2ccc(N3CCOCC3)nc2)C(C)C)c1,10,5
Cc1cc2cc(CNC(=O)Cc3ccc(F)cc3)ccc2n1C,-2,-2
CNC(=O)c1ccc2c(c1)ncn2-c1ccc(C)cc1C,-2,-4
FC(F)(F)c1ccnn1-c1c(Cl)cc(Cl)cc1Cl,-1,0
Cc1ccsc1CN(Cc1ccc(F)cc1)C(=O)CN(CC(C)C)C(=O)COCc1ccccc1,-10,-1
Cc1noc(C(C)NS(=O)(=O)c2ccc(OC(C)C)c3ccccc23)n1 (stereo not drawn),1,-3
CC(C)C1CN(C(=O)c2ccncc2F)c2ccccc2N1 (stereo not drawn),5,2
O=C1/C(=C/c2ccc(O)cc2)SC(=Nc2ccccc2)N1c1ccccc1,-5,-11
CC(NS(=O)(=O)c1ccc(Br)cc1)c1ccccc1F (stereo not drawn),1,2
O=C(C1CC1)N(CCN1CCOCC1)Cc1nccn1Cc1ccc(Cl)cc1Cl,9,25
COc1cc(/C=C/C(=O)NCCSc2ncc(-c3ccccc3)[nH]2)cc(OC)c1OC,1,-1
CC1(C(=O)NCc2ccc3c(c2)OCO3)CCN1Cc1ccccc1Cl (stereo not drawn),2,-4
CN(C)CCNC(=O)c1cnc(-c2ccccc2)nc1Oc1ccccc1F,2,4
Cc1ccsc1C=NN=C(N)N,2,-1
COc1cn(CC(=O)Nc2ccc(C)cc2C)c(CN2CCCCC2)cc1=O,-4,-5
COCCN(CC(=O)N(CCc1c[nH]c2ccccc12)Cc1ccc(C)cc1)C(=O)c1ccc(OC)cc1,-1,1
CCCCSc1nnc2c(n1)OC(C)(C)Nc1ccccc1-2,3,-3
COc1ccc(CC2CC(=O)N2)cc1 (stereo not drawn),4,10
O=C1CSC2=NCN(c3ccc(F)cc3)CN12,-7,-6
COc1ccc(C2(CNC(=O)c3cc4c(C)nn(C)c4s3)CCOCC2)cc1OC,-3,-4
O=C(Nc1ccccc1F)N1CCSC1c1ccc(F)cc1 (stereo not drawn),-5,1
CN(C)CCCN(C(=O)CN1C(=O)CCC1=O)c1nc2c(F)cc(F)cc2s1,7,5
Cc1cccc(NC(=O)c2c(-c3ccccc3Cl)noc2C)c1,-1,-1

# Single records, as listed above. Order of values: NPYLR7 ag, NPYLR7 ag max-min
# COc1ccc(CC2CC(=O)N2)cc1 (stereo not drawn) is entered as 4, 10
# COc1ccc(C2(CNC(=O)c3cc4c(C)nn(C)c4s3)CCOCC2)cc1OC is entered as -3, -4
# O=C(Nc1ccccc1F)N1CCSC1c1ccc(F)cc1 (stereo not drawn) is entered as -5, 1
# CN(C)CCNC(=O)c1cnc(-c2ccccc2)nc1Oc1ccccc1F is entered as 2, 4
# CC1(C(=O)NCc2ccc3c(c2)OCO3)CCN1Cc1ccccc1Cl (stereo not drawn) is entered as 2, -4

# 4 entries from above, tab-delimited:
canonical_smiles	NPYLR7 ag	NPYLR7 ag max-min
Cc1cccc(NC(=O)c2c(-c3ccccc3Cl)noc2C)c1	-1	-1
CN(C)CCNC(=O)c1cnc(-c2ccccc2)nc1Oc1ccccc1F	2	4
Cc1ccsc1C=NN=C(N)N	2	-1
O=C1CSC2=NCN(c3ccc(F)cc3)CN12	-7	-6

# Carrying on:
SMILES,NPYLR7 ag,NPYLR7 ag max-min
CCCNc1ncc(-c2nccn2CC2CCOCC2)cn1,21,8
COc1cc(C=NNc2nc3ccccc3[nH]2)ccc1OC(F)F,10,10
CCOC(=O)c1cc(-c2ccc(F)cc2)n(C2CCN(C(=O)c3sc4ccccc4c3Cl)CC2)n1,20,12
CCc1nnc(CN(CC)C(=O)c2csc(-c3cccs3)n2)o1,0,-3
COc1ccc(CN2CCNC(=O)C2CC(=O)N2CCCCCCC2)cc1OC (stereo not drawn),3,2
CCS(=O)(=O)c1c(Nc2cc(C)ccc2C)sc(C(=O)c2ccccc2)c1N,-9,-13
Cn1c(=O)c2c(nc(CN3CCN(CCO)CC3)n2Cc2ccc(Cl)cc2)n(C)c1=O,1,7
CCC(C)Nc1cc(C)nc2c(-c3ccc(C)cc3)c(C)nn12 (stereo not drawn),-8,-10
Cc1nc(C(F)(F)F)nc(-c2ccc(C(C)N3CCOCC3)cc2)c1C (stereo not drawn),8,3
Cc1[nH]c2ccccc2c1C(c1ccccn1)N1CCC(C)CC1 (stereo not drawn),2,7
Cc1onc(-c2ccccc2Cl)c1C(=O)Nc1ccc(C(=O)O)cc1,-2,-7
CC(=O)Oc1ccc(Cn2cc(C(=O)NCc3ccco3)sc2=O)cc1,8,1
Cc1ccc(S(=O)(=O)Nc2c(C)nn(C)c2C)cc1C,-5,-8
Cc1cccc(C)c1OCc1cc(C(=O)N2CCCC(c3ccccc3)C2)no1 (stereo not drawn),-3,-2
C=CCn1c(SCc2cccc(OC)c2)nnc1-c1ccc(OC)cc1,-1,4
CC(OC(=O)Cc1ccc(OC(F)F)cc1)C(N)=O (stereo not drawn),9,8
O=S(=O)(NCCc1csc2nc(-c3cccs3)nn12)c1ccc2c(c1)CCCC2,0,1
Cc1nc(-c2ccc(Cl)cc2Cl)nc(C)c1C#N,-1,3
CCN(C(=O)C1CC2CCCC(C1)C2=O)C1CC1 (stereo not drawn),0,-1
Cc1cc(NCCCn2cncn2)nc(-c2cccnc2)n1,1,0
Cc1ccn2c(=O)c(NC(=O)c3ccc(F)cc3F)c(C)nc2c1,5,2
CCSc1nc(N2CCOCC2)c2cnn(CCNC(=O)c3cccs3)c2n1,2,0
Cc1nc(CNC(=O)CCNS(=O)(=O)c2ccc(F)cc2)cs1,1,7
O=C(CN1CCN(S(=O)(=O)c2c(Cl)cccc2Cl)CC1)NC1CCCCC1,8,13
c1ccc(Oc2cccc(CN3CCC4(CCNCC4)C3)c2)cc1,12,9
CCN(CC)S(=O)(=O)c1cc(C(=O)Nc2cccc(O)c2)ccc1C,-13,-18
Cc1ccc(OCc2ccc(-c3nc(C#N)c(N4CCC(C(N)=O)CC4)o3)o2)cc1,2,22
Cc1cc2nc(N(Cc3cccnc3)C(=O)CS(=O)(=O)c3ccccc3)sc2cc1C,-2,-5
Cn1nc(N)c2c(Cl)cccc21,0,2
COCCOc1nc(-c2ccc(OC)cc2)n(-c2cccc(NC(=O)COC)c2)n1,-1,-1
CCOc1ccc2c3c1C(C)(C)CC3(C)N(c1ccc(F)cc1)C(=O)N2 (stereo not drawn),-2,-7
COc1ccc2nccc(Cl)c2c1,-4,3
CSCC(C(=O)O)N1C(=O)C2CCCCC2C1=O (stereo not drawn),-4,-6
CCN(CCO)c1ccc(Nc2cc(-c3ccc(OC(F)(F)F)cc3)ncn2)cc1,7,4
CCOC(=O)c1cccc(Nc2ncnc3ccc(C)cc23)c1,-7,-4
Cc1ccc(S(=O)(=O)N2CCC3(CCOC3)C2)cc1N(C)C (stereo not drawn),0,-2
CCNC(=O)OC1CCN(C(=O)COC(C)=O)CC(=O)N(C)c2ccccc21 (stereo not drawn),4,10
Cc1ccc2cc(C(=O)Nc3ccc4c(c3)n(C)c(=O)n4C)c(C)nc2c1,0,-1
CCOc1ccccc1NC(=O)N(CCOC)Cc1ccc(OS(C)(=O)=O)cc1,-12,-7
Cc1ccc(Cn2c(CO)cnc2SCC(=O)N2CC(C)OC(C)C2)cc1 (stereo not drawn),-1,-2
O=C(Nc1ccccc1)[C@@H]1CSC2(CCN(C(=O)c3ccc(-c4cccs4)s3)CC2)N1,0,-1
c1ccc(CC2CCN(c3nc(-c4cc5ccccc5o4)nc4ccccc34)CC2)cc1,-3,6
CCn1c(C)c(C(=O)CN(CCC(C)C)S(=O)(=O)c2ccc(Cl)c([N+](=O)[O-])c2)c(C)c1C(=O)OC,-11,-2
Cc1cccc2c(NCCNC(=O)c3ccco3)c(C#N)cnc12,4,3
Cc1c(C#N)c(NC(=O)CCl)n(-c2ccccc2)c1C,7,3
COC(=O)c1ccc(S(=O)(=O)N2CCN(c3nccnc3NS(=O)(=O)c3ccc4c(c3)OCCO4)CC2)o1,-1,14
CN(Cc1csc(-c2ccc(Cl)cc2)n1)Cc1cccc2ccccc12,3,-2
CC1(CNC(=O)NCC(=O)N2CCCCC2)CCCC1,-5,-5
CCN(CC)C(=O)Oc1ccc2c(ccn2Cc2ccccc2Cl)c1NC(=O)COCCOC,3,-3
COc1ccc(-c2[nH]ncc2CN2CCSCC2)c(OC)c1,-6&9,-8&3
COc1ccc(-c2nc3ccccn3c2NC(=O)c2ccc(Cl)c(Cl)c2)cc1,-8,-1
c1cnc2c(-c3nccc4c3[nH]c3ccccc34)cccc2c1,3,-1
Cc1nc(N2CCc3ccccc32)c2sc(=S)n(C)c2n1,2,2
COc1ccccc1-c1nnc(SCc2cc(=O)c(O)co2)n1C,6,4
CC(CCn1cccn1)NCc1ccc2c(c1)n(C)c(=O)n2C (stereo not drawn),-5,-4
COc1ccc(NC(=O)CSc2nnc(CNC(=O)c3ccco3)n2-c2ccc([N+](=O)[O-])cc2)cc1,-6,-2

# Screening results (PubChem)

# An excerpt, so the mix of outcomes need not match the whole.
